Rango release inh – inhibition of RanGTP-driven Rango-importin beta dissociation; O95149+P62826; AID 540253; Potency, µM (top dose mostly 46.1 µM), for inactives: top-dose activity change, negative = inhibition; Biochemical FRET Rango-importin beta, RanGTP-induced dissociation; 340,000 tested, 0.071% active; active means falling FRET ratio curve, often poorly fitted, with flat reads before Ran was added; inconclusive means other falling curves, or compound fluorescence or quenching; inactive means flat or rising ratio curve;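 also: potency is read from the fitted curve at half-maximal effect; % of control where 0% means no effect; nearly all actives have a fitted effect of over 45% in size; -100% = wells without RanGTP and RCC1; the record marks most hits as doubtful in a second field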
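Rango/importin beta premix (0.1/0.25 uM final), PBS + 1 mM DTT + 0.02% Tween-20 + 0.1% BSA; cpd 5 min RT; FRET pre-read; + RanGTP-RCC1 (0.6 uM Ran, 2 mM GTP, 0.2 uM RCC1); 45 min RT; FRET post-read, ex 430, em 486/530 nm.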
Rango-impB inh – Rango-importin beta binding inhibition; Q14974; Potency, µM (top dose mostly 92.2 µM), for inactives: top-dose inhibition of complex formation; 340,000 tested, 0.031% active; Rango CFP/YFP FRET sensor + importin beta, 45 min; active = rising FRET ratio curve, often small or poorly fitted; inconclusive = mostly compound fluorescence or quenching in the first reads; inactive = flat curves in all reads;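 also: potency is read from the fitted curve at half-maximal effect; 0% = DMSO wells and 100% = buffer wells lacking importin beta; nearly all actives have a fitted effect of over 15% in size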
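Inhibition scored from the CFP 486 nm/YFP 530 nm FRET ratio 45 min after adding 0.125 microM importin beta to 50 nM Rango biosensor preincubated 5 min with compound (room temperature, PBS with DTT, Tween-20, BSA). No-importin wells as positive control.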
miR-21 FLuc – miR-21 reporter, rising signal. AID 2288. HeLa miR-21 FLuc reporter, luciferase, 48 h. 340,000 tested, under 10 active. Potency, µM (highest dose often 38.3 µM), for inactives: at the top dose reporter change, positive = more light; active = well fitted rising curve with a large enough effect; inconclusive = small, poorly fitted or top-dose-only effect; inactive = no such curve, though single readings can be large or run the other way;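 also: % of control where 0% means no effect; miR-21 action dims this reporter so a rising signal means less miR-21 action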
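Using DMEM plus 10% FBS, HeLa miR-21-FLuc cells are incubated with test compounds (final up to about 40uM) for 48 hours; firefly luciferase signal is then imaged following reagent-mediated lysis.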
GLA inh pH 4.5 – blocks human alpha-galactosidase A at pH 4.5. P06280. purified enzyme, 4-MU-alpha-Gal fluorescence, pH 4.5. activity change, negative = inhibition, % at 105 µM. 230,000 tested, under 10 active. AID 1467; inconclusive = small, poorly fitted or top-dose-only inhibition, or a rising curve; inactive = flat fitted curve, though single readings scatter; no compound was filed as active;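 also: 0% = full activity with enzyme and -100% = basal without enzyme; dose as in the result columns while the protocol names 77 µM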
Target sequence (P06280 whole entry, looked up): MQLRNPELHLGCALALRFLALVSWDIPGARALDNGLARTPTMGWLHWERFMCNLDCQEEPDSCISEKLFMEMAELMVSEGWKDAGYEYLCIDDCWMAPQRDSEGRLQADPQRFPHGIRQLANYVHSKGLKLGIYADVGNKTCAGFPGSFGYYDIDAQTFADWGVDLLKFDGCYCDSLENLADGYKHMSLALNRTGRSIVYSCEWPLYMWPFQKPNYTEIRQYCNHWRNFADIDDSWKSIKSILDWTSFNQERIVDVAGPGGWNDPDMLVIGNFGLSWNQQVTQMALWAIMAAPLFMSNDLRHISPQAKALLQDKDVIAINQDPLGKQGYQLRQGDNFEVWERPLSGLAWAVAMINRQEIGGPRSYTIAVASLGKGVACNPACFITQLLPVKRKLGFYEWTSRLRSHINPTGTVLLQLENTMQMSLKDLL
An asterisk follows results filed as active; ? = inconclusive; · = not tested or not shown; & = joins results of further samples. Only part of the results is shown. The share of hits here may be higher or lower than overall.

SMILES | Rango release inh | Rango-impB inh | miR-21 FLuc | GLA inh pH 4.5
CC1C/C(=C\c2ccccc2[N+](=O)[O-])c2nc3ccccc3c(C(=O)O)c2C1 (stereo not drawn) | 13% | -2.2% | -2% | ·
NC(=O)C1CCN(C(=S)NC2CC3C=CC2C3)CC1 (stereo not drawn) | -9% | -1.8% | 3% | 9
Nc1ccccc1SCC(=O)Nc1nc(-c2ccccc2)cs1 | -1% | ? | 2% | 3
COc1cccc(NC(=S)N2CCCN(Cc3ccc(F)cc3)C2)c1 | -1% | -3.3% | -4% | -5
COc1ccc(-n2c(C)cc(/C=C(\C#N)C(=O)NCc3ccco3)c2C)cc1 | -2% | -4.0% | -17% | 4
COc1ccc(N2CCN(C(=O)c3ccc4ccccc4n3)CC2)cc1 | 36% | -1.9% | 1% | 5
CCOC(=O)c1c(C)nc(C)c2c(=O)oc3ccccc3c12 | -6% | 0.7% | -13% | 2
O=C(Nc1ccc(F)c(F)c1)C1CCCN(S(=O)(=O)c2cccc3nonc23)C1 (stereo not drawn) | 11% | 4.2% | -2%&-1% | ·
CCOC(=O)c1cc2occc2n1CCCN1C(=O)c2ccccc2C1=O | -7% | 0.3% | -4% | 2
CCn1c(CCNC(=O)c2cccs2)nnc1SCC(=O)Nc1nc(-c2ccccc2)cs1 | 18% | 1.8% | -1% | 0
COc1ccc(OC)c(C(=O)COC(=O)CN2C(=O)NC3(CCCCC3C)C2=O)c1 (stereo not drawn) | 14% | -2.3% | · | ·
O=C(c1ccc(C(=O)N2CCOCC2)nc1)N1CCOCC1 | 2% | 2.8% | -4% | 2
CC(=O)N1CCN(S(=O)(=O)c2cccc(C(=O)NC3CCCC3)c2)CC1 | -9% | -1.5% | · | ·
COCCn1c(C)cc(C(=O)COC(=O)c2ccc3ncsc3c2)c1C | 6% | 0.1% | -49% | -8
CCOC(=O)N1CCN(S(=O)(=O)c2ccc(C(=O)Nc3ccc(F)cc3F)cc2)CC1 | -1% | -1.5% | 22% | 7
C[C@H](CO)N1C[C@H](C)[C@@H](CN(C)S(=O)(=O)c2cn(C)cn2)Oc2c(NS(=O)(=O)c3cccs3)cccc2C1=O | 13% | 1.1% | · | ·
CN(Cc1cnn(C)c1)C(=O)c1cc(COc2c(F)cccc2F)on1 | -9% | 2.0% | -34% | 2
CNC(=O)COC(=O)c1cc(-c2ccc(OC)cc2)nc2ccccc12 | -20% | ? | -11% | 4
Cn1c(Cl)cnc1C(O)c1ccccc1 (stereo not drawn) | -2% | -0.3% | -1% | 3
Clc1ccc2nc(-c3ccc(Br)s3)cn2c1 | 14% | -0.9% | -3% | 5

Some of the entries above in another layout.
Rango release inh,Rango-impB inh,miR-21 FLuc,GLA inh pH 4.5,SMILES
-7%,0.3%,-4%,2,CCOC(=O)c1cc2occc2n1CCCN1C(=O)c2ccccc2C1=O
18%,1.8%,-1%,0,CCn1c(CCNC(=O)c2cccs2)nnc1SCC(=O)Nc1nc(-c2ccccc2)cs1
14%,-2.3%,·,·,COc1ccc(OC)c(C(=O)COC(=O)CN2C(=O)NC3(CCCCC3C)C2=O)c1 (stereo not drawn)
2%,2.8%,-4%,2,O=C(c1ccc(C(=O)N2CCOCC2)nc1)N1CCOCC1
-9%,-1.5%,·,·,CC(=O)N1CCN(S(=O)(=O)c2cccc(C(=O)NC3CCCC3)c2)CC1
6%,0.1%,-49%,-8,COCCn1c(C)cc(C(=O)COC(=O)c2ccc3ncsc3c2)c1C
-1%,-1.5%,22%,7,CCOC(=O)N1CCN(S(=O)(=O)c2ccc(C(=O)Nc3ccc(F)cc3F)cc2)CC1
13%,1.1%,·,·,C[C@H](CO)N1C[C@H](C)[C@@H](CN(C)S(=O)(=O)c2cn(C)cn2)Oc2c(NS(=O)(=O)c3cccs3)cccc2C1=O
-9%,2.0%,-34%,2,CN(Cc1cnn(C)c1)C(=O)c1cc(COc2c(F)cccc2F)on1
-20%,?,-11%,4,CNC(=O)COC(=O)c1cc(-c2ccc(OC)cc2)nc2ccccc12
-2%,-0.3%,-1%,3,Cn1c(Cl)cnc1C(O)c1ccccc1 (stereo not drawn)
14%,-0.9%,-3%,5,Clc1ccc2nc(-c3ccc(Br)s3)cn2c1

Carrying on.
SMILES | Rango release inh | Rango-impB inh | miR-21 FLuc | GLA inh pH 4.5
COc1cc(C#N)c(N=C(SCC#N)N2CCOCC2)cc1OC | -6% | -0.5% | 1% | 1
COc1ccc(-c2ccc(C#N)c(OC)n2)cc1 | 3% | -3.7% | -20% | 3
Cc1nonc1CC(=O)NC1CC(C)(C)Cc2c1cnn2-c1ccc(F)cc1 (stereo not drawn) | -10% | -0.9% | -12% | ·
CC1Cc2ccccc2N1C(=O)CN1C(=O)CN(C)C(=O)c2ccccc21 (stereo not drawn) | 8% | -0.4% | -1% | -15
CC(C)Oc1ccc(C(=O)NCC(=O)OCC(=O)N(C)Cc2cccs2)cc1 | -11% | -4.7% | -5% | -11
Cc1ccc2nc(C(Cl)(Cl)Cl)nc(N/N=C/c3ccc([N+](=O)[O-])cc3)c2c1 | 14% | -1.0% | · | ·
C=CCc1ccccc1OCC(O)CN1CCN(Cc2ccc3c(c2)OCO3)CC1 (stereo not drawn) | 9%&2% | -2.3%&0.3% | 4%&-8% | 0&-2
O=S1(=O)N=C(c2ccccc2)C=C(c2ccccc2)N1 | 1% | -4.5% | · | ·
COCC(=O)Nc1nnc(SCC(=O)NCc2cccs2)s1 | 2% | 2.0% | -2% | 1
O=C(CN1CCOCC1)N/N=C/c1ccccc1 | 0% | 0.4% | 2% | 4
CCOc1ccc(S(=O)(=O)N(C)c2ccc(OCC(=O)Nc3nc(-c4cc(OC)ccc4OC)cs3)cc2)cc1 | 0% | -3.5% | -12% | -2
CCCCc1ccc(NC(=S)NCc2ccccc2OC)cc1 | 2% | -1.5% | 1% | -13
CCNC(=S)N1CCN(C(c2ccccc2)c2ccccc2)CC1 | 27% | -2.7% | 0% | -24
CCOc1ccc(N=Nc2c(N)[nH][nH]c2=O)cc1 | 9% | 3.7% | -72% | 7
Cc1cc(C(=O)N/N=C/c2c(C)[nH]c3ccccc23)n[nH]1 | 12% | 4.1% | -2% | 3
O=[N+]([O-])c1ccc(Cc2ccc([N+](=O)[O-])cc2)cc1 | -16% | 3.4% | · | ·
COc1cccc(NC(=O)CCCCCN2C(=O)[C@@H]3Cc4ccccc4CN3C2=O)c1 | 0% | -4.0% | 5% | ·
CCOC(=O)CSc1n[nH]c(NC(=O)NC(C)C)n1 | 10% | 0.4% | 3% | 7
CCC(=O)Nc1cccc(C2=NOC3(C2)C[C@@H](C(N)=O)N(C(=O)C(c2ccccc2)c2ccccc2)C3)c1 (stereo partly drawn) | 10% | 0.1% | 5% | -9
O=C(CNC(=O)c1ccccc1Br)N/N=C/c1cccnc1 | 9% | 1.9% | -3% | ·
CCc1cccc(NC(=O)CSCc2nc3sc(C)c(C)c3c(=O)[nH]2)c1 | -1% | -2.6% | · | ·
COc1ccc(Cl)cc1NC(=S)NCCc1ccc(F)cc1 | -3% | -3.8% | 7% | ·
Cc1ccccc1OCc1nc(-c2ccccc2)no1 | -10% | 3.7% | -49% | -11
CCn1c(O)c(N=NC(=O)CNC(=O)c2ccccc2F)c2ccccc21 | 2% | -2.6% | 6% | ·
O=C(c1ccc2nc(-c3ccco3)c(-c3ccco3)nc2c1)N1CCN(c2ccccc2)CC1 | ? | ? | 8% | -6
CN(CC(=O)Nc1ccc(S(=O)(=O)N2CCCC2)cc1)Cc1ccc(Cl)cc1Cl | 1% | 2.4% | 4% | -8
CCOC(=O)c1[nH]cnc1C(=O)Nc1ccc([N+](=O)[O-])cc1 | -8% | 1.1% | 9% | ·
C[C@H](CO)N1C[C@H](C)[C@@H](CN(C)Cc2ccncc2)Oc2c(cccc2N(C)C)C1=O | -19% | ? | · | ·
O=C(COC(=O)c1sc2cc(Cl)ccc2c1Cl)Nc1ncc(Cl)cc1Cl | · | · | -1% | -3
O=C(CSc1nc2c(sc3ccccc32)c(=O)n1CCCN1CCCC1)NCC1CCCO1 (stereo not drawn) | -7% | ? | -7% | -3
Cc1cc(C)n2c(SCC(=O)N3CCN(S(=O)(=O)c4ccc(Cl)cc4)CC3)nnc2n1 | 0% | ? | -5% | -1
Cc1cc(C)c(CN2CCC(CO)(CCOc3ccccc3)CC2)cc1C | -16% | -2.8% | -2% | -5
CC1(C)CC(=O)C=C(NCCc2ccccc2)C1 | 0% | 5.3% | -3% | ·
COc1ccc(S(=O)(=O)Nc2cccc(-c3ccc4nncn4n3)c2)cc1F | -1% | 0.0% | 20% | -1
COc1cccc(/C=C(\C)C(=O)c2c(C)cc(C)[nH]c2=O)c1OC | -10% | -1.1% | -4% | ·
O=c1nc(/C=C/c2ccccc2C(F)(F)F)cc(C(F)(F)F)[nH]1 | 1% | 1.5% | -3% | ·
CN1C(=O)[C@H]2[C@@H](/C=C/c3ccccc3)N3C(=O)CN(Cc4ccccc4)C(=O)[C@@]3(C)[C@H]2C1=O | 10% | -0.3% | -5% | ·
COc1ccc(Br)cc1/C=N/n1c(-c2ccccc2)n[nH]c1=S | -20% | 1.1% | 9% | ·
Cc1c(NC(=S)N2CCN(c3cccc(Cl)c3)CC2)c(=O)n(-c2ccccc2)n1C | 13% | 2.9% | 5% | 4
COc1ccc(S(=O)(=O)N2CCCCCC2)cc1C(=O)OCC(=O)NCC(C)C | -3% | -1.4% | -2% | -8
CC1=C2C(=O)OC(c3ccoc3)C2(C)CCC1 (stereo not drawn) | -9% | 0.1% | -1% | -10
COC(=O)C1(C)NC(c2ccc(O)cc2)C2C(=O)N(c3ccc(F)cc3)C(=O)C21 (stereo not drawn) | 10% | 2.2% | 1% | ·
C/C(N)=C(/C#N)C(=O)CN1C(=O)NC(Cc2c[nH]c3ccccc23)C1=O (stereo not drawn) | -13% | -1.5% | -5% | ·
O=C(NCCCn1ccnc1)c1cn(-c2ccccc2)nc1-c1ccc(F)cc1 | -12% | 1.8% | -4% | 4
CCN(C(=O)COC(=O)COc1ccc(Cl)c(C)c1)C1CCS(=O)(=O)C1 (stereo not drawn) | 5% | 4.8% | · | ·
O=C(C1CCN(CC2CC=CCC2)CC1)N(CCc1ccccc1)Cc1ccccc1 (stereo not drawn) | 8% | 10% | 9% | 6
COc1cccc(C2(O)CC(C(F)(F)F)=NN2C(=O)c2ccccn2)c1 (stereo not drawn) | -4% | 3.4% | -61% | -5
CNC(=S)NNC(=O)Cc1ccc(O)cc1 | 21% | 1.4% | 1% | -11
COc1ccc(Nc2nc(C(=O)N(CCO)Cc3ccccc3)cs2)cc1 | -1% | -1.2% | -1% | -1
O=C(CCN1C(=O)c2ccccc2C1=O)N1CCN(Cc2ccc(Cl)cc2Cl)CC1 | -10% | -2.9% | -5% | 7
O=C(CN1C(=O)COc2ccccc21)NCCN1CCc2ccccc2C1 | 0% | 1.8% | -3% | -1
O=C(Cn1nc(Cc2cccnc2)c2ccccc2c1=O)Nc1ccc2c(c1)OCO2 | -14% | -2.1% | -17% | 7
O=c1c2ccccc2nc(SCc2ccccc2Cl)n1Cc1ccccc1 | 10% | 1.5% | -1% | -7
COc1ccc(S(=O)(=O)Nc2ccccc2-c2nc3ccccc3[nH]c2=O)cc1 | 4% | -1.2% | 29% | ·
COc1cc(/C=C(\NC(=O)c2ccccc2)C(=O)NC(C(=O)O)c2ccccc2)cc(OC)c1OC (stereo not drawn) | -8% | 2.5% | -1% | ·
CC1CN(C(=O)CCC(=O)N2CCN(c3cccc(C(F)(F)F)c3)CC2)c2ccccc2O1 (stereo not drawn) | -4% | 2.1% | ? | ·
Cn1c(=O)oc2cc(S(=O)(=O)N3CCCC(C(=O)NCC4COc5ccccc5O4)C3)ccc21 (stereo not drawn) | -5% | -5.5% | 8% | 1
COc1ccc(S(=O)(=O)N2CCCOC2CNC(=O)C(=O)NCCCn2ccnc2)cc1 (stereo not drawn) | 5% | -2.8% | 2% | -14
CC(C)(C)Nc1scc(-c2ccccc2)[n+]1-c1ccccc1 | -7% | -0.3% | -5% | -1
